Ecoli growth = blocks Escherichia coli growth; OD600 absorbance (concentration not given with the values); hit rate 0.21% among 330,000; OD600, 23 h; stronger effect = lower value;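 active means OD600 absorbance below the run mean of sample wells minus 3.6 SD, in any replicate, cut at about 0.56 in these data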;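 further: stock transfer was 300 nL into about 60 µL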
UCH37 DUB inh = human UCH37 deubiquitinating enzyme inhibition | hit rate 0.33% among 330,000 | Q9Y5K5 | AID 588478 | inhibition, % (test concentration not listed) | purified proteasome/UCH37, Ub-AMC cleavage fluorescence;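 active means mean of two replicates above 20%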;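 further: 0% = compound-free wells with enzyme and 100% = wells lacking proteasome; stock transfer was 100 nL into about 20 µL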
Target sequence (Q9Y5K5 whole entry, looked up): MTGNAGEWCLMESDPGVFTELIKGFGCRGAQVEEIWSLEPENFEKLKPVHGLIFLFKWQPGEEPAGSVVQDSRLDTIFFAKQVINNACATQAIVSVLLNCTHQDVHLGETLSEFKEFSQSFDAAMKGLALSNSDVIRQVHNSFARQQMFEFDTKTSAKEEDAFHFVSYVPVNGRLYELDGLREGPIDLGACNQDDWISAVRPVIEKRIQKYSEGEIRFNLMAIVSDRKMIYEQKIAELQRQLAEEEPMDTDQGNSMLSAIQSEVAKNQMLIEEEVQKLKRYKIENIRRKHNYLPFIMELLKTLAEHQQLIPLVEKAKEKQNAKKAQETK
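Test system – human UCH37 enzyme supplied as purified proteasome complex · Incubation – 30 min preincubation with enzyme, 25 min cleavage at room temperature · Detection – AMC fluorescence from Ub-AMC cleavage, excitation 355 nm, emission 460 nm · Benchmarks – no-proteasome wells (full inhibition) and compound-free wells (no inhibition)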
RanGTP-Imp inh = disruptors of Ran-importin-beta complex formation – biochemical, FRET, CFP-Ran, YFP-importin-beta, homogeneous, primary screen | hit rate 1.1% among 300,000 | cell-free CFP-Ran/YFP-importin-beta FRET ratio | inhibition, % (test concentration not listed);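 active means most replicates above 15%; inconclusive means exactly half above 15%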;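 further: 0% = DMSO wells and 100% = Ran loaded with GDP instead of GTP; wells of about 40 µL received 100 nL stock; the first replicate is given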
FGF22 binding = FGF22 (human) thermal shift binding | Q9HCT0 | recombinant FGF22 thermal shift, SYPRO orange fluorescence; percent of sucrose octasulfate shift, DMSO zero | calls only at 9.99 µM | hit rate 1.5% among 340,000 | AID 651658;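 active means melting point raised past a set limit in the mean and every replicate; inconclusive means no clear call; three in four hits are not shown here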
Target sequence (Q9HCT0 whole entry, looked up): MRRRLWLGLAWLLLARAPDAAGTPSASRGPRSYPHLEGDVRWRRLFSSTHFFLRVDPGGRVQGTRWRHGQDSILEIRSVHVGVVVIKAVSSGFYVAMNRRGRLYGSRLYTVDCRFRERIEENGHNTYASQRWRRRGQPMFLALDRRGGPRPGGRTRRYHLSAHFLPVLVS
AF4-AF9 inh = inhibitors of human MLL-AF4/AF9 interaction; AID 651704; inhibition, % at 10 µM; AlphaScreen, biotin-AF4 peptide binding to FLAG-AF9; hit rate 0.47% among 350,000;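 active means every replicate reaching a set inhibition limit, whatever the replicate mean, cut at about 25% in these data; inconclusive means mean inhibition reaches that limit but some replicates miss it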;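 further: 0% = plate neutral control median and 100% = total signal loss; the record names both 10 and 1 µM as test concentration; the first replicate is given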
Vif A3G = HIV-1 Vif–A3G interaction blockers – biochemical, TR-FRET, GST-Vif 1-94, biotin-A3G peptide, dose response retest, primary screen (AID 1117319); TR-FRET GST-Vif / biotin-A3G peptide binding; higher % means a stronger effect; test concentration not given here; strong numbers were not always called active; one-dose inhibition, %; IC50 in µM for titrated hits; hit rate 0.57% among 260,000;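 active means above the screen mean plus three standard deviations and confirmed in dose response; inconclusive means results disagree or hit not tested in dose response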;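 further: Vif residues 1-94 fused to GST binding biotinylated APOBEC3G peptide 110-148; 0% = full assay without inhibitor and 100% = GST in place of GST-Vif; retest series ran down from 100 µM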
HNF4A DNA FP = change in binding of human HNF4 alpha to DNA; hit rate 0.3% among 360,000; P41235; HNF4a-FITC DNA binding, fluorescence polarization, 1 h; activity change, % at 10 µM; AID 1224865; in the data active means activity change above about 30%, passing the limit was not always enough;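 further: controls were the assay level and a saturating level of protein; the project sought stronger binding though the title names inhibitors; some compounds called inactive have numbers as strong as hits; positive values seem to mean higher polarization but the record does not say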
Target sequence (P41235 whole entry, looked up): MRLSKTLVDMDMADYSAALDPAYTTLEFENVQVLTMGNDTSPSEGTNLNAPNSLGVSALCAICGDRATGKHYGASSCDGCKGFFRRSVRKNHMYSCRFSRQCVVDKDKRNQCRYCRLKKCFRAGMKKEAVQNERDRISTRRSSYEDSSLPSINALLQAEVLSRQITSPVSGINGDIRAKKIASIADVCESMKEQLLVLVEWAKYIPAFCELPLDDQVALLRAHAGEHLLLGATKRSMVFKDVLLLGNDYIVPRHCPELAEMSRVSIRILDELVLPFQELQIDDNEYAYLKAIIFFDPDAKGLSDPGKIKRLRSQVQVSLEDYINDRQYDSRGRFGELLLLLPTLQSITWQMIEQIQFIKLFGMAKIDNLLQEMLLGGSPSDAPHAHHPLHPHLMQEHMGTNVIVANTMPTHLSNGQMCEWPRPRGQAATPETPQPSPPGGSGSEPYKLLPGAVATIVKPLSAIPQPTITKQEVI
The depositor's hits bear a star; i = inactive; ? = inconclusive; · = no result given; + = active, no number; & = joins results of further samples. Only part of the results is shown; the hit share may differ from the screen's.

SMILES	Ecoli growth	UCH37 DUB inh	RanGTP-Imp inh	FGF22 binding	AF4-AF9 inh	Vif A3G	HNF4A DNA FP
CCCNC(=O)CC1Sc2ccccc2NC1=O (stereo not drawn)	0.7	-1.5	-0.3	·	·	0%	1.1
CCSc1nnc(NC(=O)C2CC(=O)N(Cc3ccccc3)C2)s1 (stereo not drawn)	0.68	3.8	0.0	·	-6.5	4%	4.5
O=C(CCC(=O)N1CCN(c2ccc(F)cc2)CC1)c1ccc(F)cc1	0.67	1.0	-0.1	i	-9.7	8%	·
Cc1cc(C(=O)OCC(=O)N(CC(C)C)c2c(N)n(Cc3ccccc3)c(=O)[nH]c2=O)c(C)o1	0.71	0.6	0.5	·	1.7	13%	1.8
Cc1ccc(N2C(=O)C(CC(=O)Nc3cccc(F)c3)N(CCc3ccncc3)C2=O)cc1 (stereo not drawn)	0.66	1.6	-1.4	i	7.5	0%	0.7
Cc1ccccc1NS(=O)(=O)c1ccc2c(c1)oc(=O)n2C	0.67	-0.6	?	i	-3.6	-2%	4.6
COc1ccc([C@H]2CC(=O)C=C(c3ccccc3-c3ccccc3)C2)cc1	·	3.4	·	i	1.3	·	0.5
Cc1ccc(NC(=S)N(CCN2CCCCC2)Cc2ccco2)cc1Cl	0.69	0.8	1.4	i	7.5	5%	0.2
Cc1cc2nn(-c3ccc(Cl)cc3)nc2cc1N	·	·	6.9	i	-0.6	·	4.2
CCn1c(=O)c(C(=O)NCCc2ccc(Cl)cc2)c(O)c2ccccc21	0.67	-2.4	3.0	i	-0.7	-4%	3.8
O=C(CSc1nnc(CN2CCOCC2)n1-c1ccccc1)N1CCc2ccccc21	0.71	5.1	-0.6	·	·	4%	-0.1
COc1cc(NC(=O)COC(=O)c2ccccc2F)cc(OC)c1	0.68	-0.5	1.6	i	-5.2	11%	-0.8
Cc1ncc(CO)c2c1Oc1nc(-c3ccccc3)nc(SCC(=O)Nc3cccc(O)c3)c1C2	0.73	5.0	-0.9	i	-0.3	·	-1.3
Cc1ccc(OCCN(C)C(=O)C2CCC(=O)N(Cc3ccccc3F)C2)cc1 (stereo not drawn)	0.68	3.2	11	i	-0.1	-6%	3.3
CC1CCCN(CCCNC(=O)CN2C(=O)COc3ccccc32)C1 (stereo not drawn)	0.64	-2.7	1.2	i	-2.5	4%	-0.2
CCN(CC)S(=O)(=O)c1ccc(N2CC(C(=O)NCCC3=CCCCC3)CC2=O)cc1 (stereo not drawn)	0.69	1.0	·	i	-0.3	-3%	-2.3
Cc1ccccc1OCC(O)CN1CCN(c2ccc(Cl)cc2)CC1 (stereo not drawn)	0.62	4.8	-2.1	i	2.0	-1%	2.6
COc1ccccc1-n1c(SCC(=O)Nc2ccc(C)cc2)nc(O)cc1=O	0.65	2.1	6.5	·	·	21%	-2.3
COC(=O)c1c(SCC(=O)Nc2ccc(C)cc2)nc(=O)[nH]c1C	0.7	6.9	-0.9	i	-3.2	22%	8.1
O=C1CC(c2ccccc2Cl)=NN(c2ncnc3ccccc23)C1=O	0.72	1.2	-3.3	i	3.4	?	5.7
Cc1ccc(N)c(C(O)(C(F)(F)F)C(F)(F)F)c1	0.76	1.0	0.9	i	7.5	16%	-0.3
Cc1ccc(N=Cc2c(O)n(-c3ccc4c(c3)OCO4)c(=O)c3ccccc23)cc1	0.78	3.0	-96	·	·	?	0.6
Cc1cc(-c2nnc(SCC(=O)Nc3ccccc3C(F)(F)F)o2)c(C)n1-c1ccccc1	0.76	1.5	?	·	·	-4%	2.1
CC(C)N(CCO)Cc1nc(C(c2ccccc2)c2ccccc2)no1	0.65	6.7	-1.6	i	3.1	·	1.2
CCn1c(C)nc2cc(C(=O)NN=Cc3ccc([N+](=O)[O-])cc3)ccc21	0.71	6.5	·	i	-0.3	·	1.3

Later entries.
SMILES	Ecoli growth	UCH37 DUB inh	RanGTP-Imp inh	FGF22 binding	AF4-AF9 inh	Vif A3G	HNF4A DNA FP
CCSc1nc2c(cnn2-c2ccc(C)c(C)c2)c(=O)[nH]1	0.73	4.7	2.5	i	2.3	?	8.3
CCCn1c(=O)c(C(=O)NCC2CCCO2)c(O)c2ccccc21 (stereo not drawn)	·	·	4.0	i	-15	-11%	2.2
CCC(=O)c1cn(CC(=O)Nc2cc(C)ccc2C)c2ccccc12	0.67	3.7	1.4	i	-2.2	·	4.5
O=C(c1ccccc1)c1ccc2c(c1)OCCCO2	0.67	2.0	2.2	i	0.5	·	-1.9
CN(C)c1ccc(NC(=O)CN2CCN(S(=O)(=O)c3cc(Cl)ccc3Cl)CC2)cc1	0.78	1.0	1.5	·	·	1%&14%	-2.3
COc1ccc(CCNC(=O)CN2C(=O)NC3(CCOc4ccccc43)C2=O)cc1 (stereo not drawn)	0.66	-0.8	·	i	2.6	3%	1.4
COc1ccc(OCc2cc(C(=O)NCc3nc(C)cs3)no2)c(Cl)c1	0.68	5.4	0.9	i	1.0	-2%	-3.8
Cc1noc(C)c1C(=O)Nc1nc(-c2ccc(F)cc2)cs1	0.71	3.5	·	i	-1.4	·	-3.3
COc1ccc(CC(NC(C)=O)C(=O)NC2CCN(S(=O)(=O)c3ccc(NC(C)=O)cc3)CC2)c(OC)c1 (stereo not drawn)	0.64	1.0	3.1	i	-1.9	·	-0.3
CC(C)(C)C(=O)NC1(C(F)(F)F)N=C2SCCN2C1=O (stereo not drawn)	0.71	-3.1	0.4	·	·	0%	-0.9
S=C(NC1CCCC1)NC1CC1	0.71	0.6	-0.1	i	-0.5	11%	2.5
N=c1oc2ccccc2cc1C(=O)Nc1ccccc1	0.71	1.7	2.7	i	7.3	·	-0.9
O=C(NCCNS(=O)(=O)c1ccccc1)c1cc(OCC(F)(F)F)ccc1OCC(F)(F)F	0.7	1.3	1.7	·	·	30%	0.7
CCN(CC(=O)Nc1ccc(NC(C)=O)cc1)C(=O)CCCN1C(=O)c2ccccc2C1=O	0.71	3.3	1.2	i	-1.5	6%	1.2
Cc1cccnc1NC(=O)Nc1cccc2ccccc12	0.73	-5.3	2.9	·	·	-1%	-0.9
Oc1ccc(Br)cc1-c1ccn[nH]1	0.58	0.9	0.5	i	-1.3	5%	-2.9
CN1/C(=C/C=N/NC(=O)c2ccc([N+](=O)[O-])cc2)C(C)(C)c2ccccc21	·	·	-2.2	i	5.4	·	1.1
C#CCOCCOCCOCCNc1nc(N2CCN(C(=O)C([C@@H](C)O)n3cc([C@@H](N)CCCCN)nn3)CC2)nc(N2CCN(C(=O)[C@H](CCC(=O)O)n3cc([C@@H](N)[C@H](C)CC)nn3)CC2)n1 (stereo partly drawn)	0.69	4.3	·	i	1.6	6%	-1.4
COC(=O)c1ccccc1S(=O)(=O)N1CCC(C(=O)N(C)CCOc2ccccc2)CC1	0.68	3.5	2.6	i	-1.1	-5%	-0.3
CC1CN(C(=O)c2ccc(C(=O)c3ccccc3)cc2)CC(C)O1 (stereo not drawn)	0.71	3.0	2.1	i	2.2	5%	2.3
CSCCC(NC(=O)c1cccc(S(=O)(=O)N2CCOCC2)c1)C(=O)Nc1cccc(C)c1 (stereo not drawn)	0.71	7.1	3.8	i	6.3	·	0.9
COc1cc(CNCc2ccccc2C(F)(F)F)cc(OC)c1	0.66	-2.1	3.2	i	-3.1	·	0.6
CC(=O)C1=CCC(c2cccs2)N(S(=O)(=O)c2ccc(C)cc2)C1 (stereo not drawn)	·	·	·	i	-1.0	·	3.1
Cc1ccc(Cc2c(-c3ccco3)nc3ccc(Br)cn23)cc1	·	·	·	i	1.8	·	9.5
NC(=O)c1nsc(C(=O)N(c2cccc(F)c2)C(C(=O)NCC2CCCO2)c2ccc3ncccc3c2)c1N (stereo not drawn)	0.69	-205	0.6	i	-11	·	-2.5

Entries of single compounds, looked up by structure:
Profile of `S=C(NC1CCCC1)NC1CC1` → Ecoli growth: 0.71; UCH37 DUB inh: 0.6; RanGTP-Imp inh: -0.1; FGF22 binding: i; AF4-AF9 inh: -0.5; Vif A3G: 11%; HNF4A DNA FP: 2.5
Profile of `Cc1ncc(CO)c2c1Oc1nc(-c3ccccc3)nc(SCC(=O)Nc3cccc(O)c3)c1C2` → Ecoli growth: 0.73; UCH37 DUB inh: 5.0; RanGTP-Imp inh: -0.9; FGF22 binding: i; AF4-AF9 inh: -0.3; Vif A3G: ·; HNF4A DNA FP: -1.3
Profile of `CC1CCCN(CCCNC(=O)CN2C(=O)COc3ccccc32)C1` (stereo not drawn) → Ecoli growth: 0.64; UCH37 DUB inh: -2.7; RanGTP-Imp inh: 1.2; FGF22 binding: i; AF4-AF9 inh: -2.5; Vif A3G: 4%; HNF4A DNA FP: -0.2

Additional entries.
SMILES	Ecoli growth	UCH37 DUB inh	RanGTP-Imp inh	FGF22 binding	AF4-AF9 inh	Vif A3G	HNF4A DNA FP
CCc1nn2c(=O)c(S(=O)(=O)Nc3ccc(Cl)cc3)c(C)nc2s1	0.73	5.1	5.0	i	-1.6	·	-4.5
O=C(NCCc1cccc(Cl)c1)c1ccc2c(c1)OCO2	0.68	4.4	·	i	-3.2	11%	1.4
COc1ccc(NC(=O)CCCC(=O)c2ccccc2)cc1OC	0.67	0.8	-4.4	i	-0.1	-1%	2.1
CCN(CC)S(=O)(=O)c1cc(C(=O)Nc2nncs2)c(Cl)cc1Cl	0.67	2.7	4.8	·	·	4%	-0.7
CCN(Cc1ccccc1)N=Nc1ccccc1	·	·	·	i	2.7	-2%	-3.4
COc1cc(CCC(=O)OCC(=O)Nc2nc(C)c(Cl)cc2Cl)cc(OC)c1OC	0.63	0.2	3.7	·	·	4%	-1.0
CCCCn1nnnc1C(c1ccccc1)N1CCN(C(=O)C2CCCO2)CC1 (stereo not drawn)	·	·	·	i	-2.7	·	1.8
O=C(Nc1nc2cc3c(cc2s1)OCO3)C1CCCCC1	0.69	0.5	4.1	i	-1.4	3%	1.0
CC(C)(C)c1ccc(C(=O)NNC(=O)C2CCCCC2)cc1	0.68	0.7	8.0	i	-1.8	6%	4.1
COc1ccccc1N1CCN(C2CCN(C(=O)COc3cccc(C)c3)CC2)CC1	0.69	3.4	0.0	·	·	·	1.1
CSC(=NC#N)N1CCN(c2ccccc2)CC1	0.73	2.3	-0.6	·	·	-4%	0.1
O=C(CNC(=S)NC(=O)c1ccc(Cl)cc1)c1ccccc1	0.69	1.3	?	i	-2.4	11%	-1.8
Cc1ccc(Cl)cc1N1CCN(CC(O)COC(C)C)CC1 (stereo not drawn)	0.66	5.1	-4.6	i	·	4%	-6.8
Cn1c(CCNC(=O)c2ccco2)nc2cc(NC(=O)c3ccco3)ccc21	0.69	2.6	-0.4	·	·	-2%	-1.1
O=S(=O)(c1cccc2ccccc12)N1CCC2CC1c1cc(-c3ccc4c(c3)OCO4)ccc12 (stereo not drawn)	·	·	·	i	0.0	·	4.6
COc1ccc(CN/C(C)=C(/C#N)C(N)=O)cc1OC	0.68	0.3	4.1	·	·	2%	1.0
CCOc1cc(C)ccc1OCc1nnc(SCC(=O)c2cccc([N+](=O)[O-])c2)n1CC	0.72	2.6	-0.1	·	·	15%	1.0
COc1ccccc1OCC(=O)Nc1cc(C)ccc1NC(=O)c1ccco1	0.64	1.1	1.3	i	0.6	-3%	-3.4
CCOc1ccc(/C=C/C2=NNC(=O)CC2)cc1	0.63	8.3	4.9	i	1.0	0%	2.4
Cc1nnsc1C(=O)Nc1ccc(S(=O)(=O)N2CCCCC2)cc1	0.6	1.0	3.2	i	1.1	·	1.4
Cc1cc(C(=O)NCc2ccco2)c2ccccc2n1	0.74	2.2	0.9	i	-1.8	-8%	5.4
COc1cc(OC)cc(C(=O)Nc2nc3ccc(S(C)(=O)=O)cc3s2)c1	0.69	-4.4	-1.2	+	1.1	·	-1.6
O=C(Nc1ccc(Cl)c(-c2nc3ccccc3[nH]2)c1)c1cccnc1	0.59	3.1	-2.5	·	·	80µM*	-2.3

Screening results (PubChem)
